Assay outcomes as filed in PubChem BioAssay.
GLA inh pH 4.5: alpha-galactosidase A (human) inhibition, pH 4.5; 230,000 tested, under 10 active; purified enzyme, 4-MU-alpha-Gal fluorescence, pH 4.5; activity change, negative = inhibition, % at 105 µM; P06280; inconclusive = small, poorly fitted or top-dose-only inhibition, or a rising curve; inactive = flat fitted curve, though single readings scatter; no compound was filed as active;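 further: 0% = full activity with enzyme and -100% = basal without enzyme; dose as in the result columns while the protocol names 77 µM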
Target sequence (P06280 whole entry, looked up): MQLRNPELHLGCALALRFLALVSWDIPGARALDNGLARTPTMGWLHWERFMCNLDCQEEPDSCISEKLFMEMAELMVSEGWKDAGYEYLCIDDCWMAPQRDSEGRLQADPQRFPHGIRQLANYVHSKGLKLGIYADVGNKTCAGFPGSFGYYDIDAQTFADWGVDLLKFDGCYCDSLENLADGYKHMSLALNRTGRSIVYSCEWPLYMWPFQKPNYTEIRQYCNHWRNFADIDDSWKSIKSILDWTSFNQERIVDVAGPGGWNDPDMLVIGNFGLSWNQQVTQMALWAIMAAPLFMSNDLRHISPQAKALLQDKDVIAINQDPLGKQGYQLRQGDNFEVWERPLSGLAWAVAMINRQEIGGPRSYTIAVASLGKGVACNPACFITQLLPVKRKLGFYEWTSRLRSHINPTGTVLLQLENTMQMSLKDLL
* = called active by the depositor; & = joins results of further samples.

SMILES	GLA inh pH 4.5
C[C@@](O)(/C=C/[C@H]1CC=CC(=O)O1)[C@@H](C[C@@H](O)\C=C/C=C\C=C\CO)OP(=O)(O)O	-5
CCN(CC)CCC[C@H](C)Nc1ccnc2cc(Cl)ccc12	-2
CCc1cccc2nc3c(c([Si](CC)(CC)CC)c12)Cn1c-3cccc1=O	18
O=C(C1CCCCC1)N1CC(=O)N2CCc3ccccc3[C@@H]2C1	0
COc1cccc(OC)c1C(=O)NC1C(=O)N2C1SC(C)(C)C2C(=O)O (stereo not drawn)	1
O=C1C(=O)N(Cc2ccc(Cl)c(Cl)c2)c2ccccc21	-4
CN(C)Cc1ccccc1-c1cncnc1NCc1cccs1	3
CC1=C(C(=O)OCc2ccccc2)C(C2CC2)NC(=O)N1CCCCCC(=O)O (stereo not drawn)	-16
CC#CCN1c2ccccc2[C@]23C[C@@H](C(=O)OC)N(S(=O)(=O)CCCC)C2=NC(C(=O)OC)=C(C(=O)OC)[C@H]13	-4
Cc1cn2c(=O)c3ccccc3nc2n2c(=O)c3ccccc3nc12	3
CCCCc1nc2c(c3c1C[C@H](C)OC3)CN(C(=O)c1ccco1)CC2	7
COC(=O)[C@@]1(Cc2ccc(OC)cc2)[C@H]2c3cc(C(=O)N4CCCC4)n(Cc4cc(F)cc5c4OCOC5)c3C[C@H]2CN1C(=O)c1ccccc1	-3
c1ccc2nc(C3=NCCN3)ccc2c1	-7&5
CC(N)C(O)c1cccc(O)c1 (stereo not drawn)	0
CC(C)=CCC1=C(O)c2ccccc2C(=O)C1=O	0&4
NC(=O)c1ncn([C@H]2O[C@@H](CO)[C@@H](O)[C@@H]2O)n1	-3
CC[C@H]1NC(=O)c2cc(S(N)(=O)=O)c(Cl)cc2N1	12
CNC(=O)[C@]1(C)C[C@H]1[C@H](NC(=O)[C@]1(C)C[C@H]1[C@H](NC(=O)[C@]1(C)C[C@H]1[C@H](NC(=O)[C@]1(C)C[C@H]1[C@H](NC(=O)OCc1ccccc1)c1ccccc1)c1ccccc1)c1ccccc1)c1ccccc1	1
C[C@H]1NC(=O)NC1=O	5&2
NC1=NCCN1CC(=O)O	2
COC(=O)[C@@]1(Cc2ccc(OC)cc2)[C@H]2c3cc(C(=O)N(C)C)n(CCN4CNCC4=O)c3C[C@H]2CN1C(=O)c1ccccc1	1
CS(=O)(=O)Nc1ccc([N+](=O)[O-])cc1OC1CCCCC1	-13
CCCCS(=N)(=O)CCC(N)C(=O)O (stereo not drawn)	-1&2
CNC1C(O)[C@@H]2OC(O[C@@H]3C(O)C(O)C(N)C[C@H]3N)C(N)C[C@H]2O[C@H]1O[C@@H]1OC(CO)C(N)C(O)C1O (stereo partly drawn)	-2
COc1cccc([C@@H]2Oc3ccc(Br)cc3C(=O)[C@H]2OC(=O)NS(=O)(=O)c2ccc(F)cc2)c1	-3
C=CC(C)(C)c1c2c(c(O)c3c(=O)c4ccc(O)c(O)c4oc13)C=CC(C)(C)O2	-20
COC(=O)[C@@]1(Cc2ccc(OC)cc2)[C@H]2c3cc(C(=O)N4CCCC4)n(CCc4ccc(OC)c(Br)c4)c3C[C@H]2CN1C(=O)c1ccccc1	-4
CC(C)C[C@@H](CC(=O)N[C@H](CC(=O)N[C@@H]1CCCC[C@H]1C(=O)N[C@H](CC(=O)N[C@@H](CCC(=O)O)CC(=O)O)CC(C)C)C(C)C)NC(=O)[C@@H]1CNCC[C@H]1N	-11
COC(=O)C1CC1C(NC(=O)[C@@H]1CCCN1)c1ccccc1 (stereo partly drawn)	-3
COC(=O)[C@H]1O[C@@H](c2cc(OC)c(C)c(OC)c2OCc2ccccc2)[C@H](C)[C@H]2O[C@@]12C	-2&-7
CC(=O)Nc1ccc(S(=O)(=O)Nc2ccc([N+](=O)[O-])cc2)cc1	-7
O=C(Nc1ccncc1)c1cc([N+](=O)[O-])ccc1Cl	-3
COC(=O)CC1c2ccccc2C=C(/C=C/c2ccc3c(c2)OCO3)N1C(=O)OC (stereo not drawn)	11
Cc1cccc(CNc2ccnc(-c3ccc(C(=O)N(C)C)cc3)n2)c1	-11
CCOC(=O)C(CCc1ccccc1)NC(C)C(=O)N1CCCC1C(=O)O (stereo not drawn)	4
CC(C)[C@@H](CC(=O)N[C@@H]1CCNC[C@H]1C(=O)N[C@H](CC(=O)N[C@@H](CCC(=O)O)CC(=O)O)Cc1c[nH]c2ccccc12)NC(=O)C[C@H](Cc1c[nH]c2ccccc12)NC(=O)[C@@H]1CCCC[C@H]1N	-25
CCOC(=O)C1C(C(=O)OC)=C(CC(C)C)c2ccccc2N1S(=O)(=O)C(F)(F)F (stereo not drawn)	-13
COc1cc(NCc2ccc3nc(N)nc(N)c3c2C)cc(OC)c1OC	-5
C[C@H](O)CO[C@H]1[C@H]2O[C@H]3[C@H](O)[C@@H](O)[C@@H](O[C@H]4[C@H](O)[C@@H](O)[C@@H](O[C@H]5[C@H](O)[C@@H](O)[C@@H](O[C@H]6[C@H](O)[C@@H](OC[C@H](C)O)[C@@H](O[C@H]7[C@H](O)[C@@H](OC[C@H](C)O)[C@@H](O[C@H]8[C@H](O)[C@@H](O)[C@@H](O[C@@H]([C@@H]1O)[C@@H](CO)O2)O[C@@H]8CO)O[C@@H]7CO)O[C@@H]6CO)O[C@@H]5CO)O[C@@H]4CO)O[C@@H]3CO	-9
CC[C@@]12CCCN3CCc4c(n(c5ccccc45)C(=O)C1)[C@H]32	-16
O=Nc1c(-c2c(O)[nH]c3ccccc23)[nH]c2ccccc12	-3&-3
OC/C=C/c1ccc(O)c(O)c1	-2
Cc1c2ccccc2c(CSC(=N)N)c2ccccc12	-4
NC[C@@H]1O[C@H](O[C@@H]2[C@H](O[C@@H]3O[C@H](CO)[C@@H](O)[C@@H]3O)[C@@H](O)[C@@H](N)C[C@H]2N)[C@@H](N)[C@H](O)[C@@H]1O	2
O=C(CCCCCCCCCCCCC1CCCC1)Nc1ccc(S(=O)(=O)c2ccc(NC(=O)CCCCCCCCCCCCC3CCCC3)cc2)cc1	8
CN(C)c1ccc(-c2nc(N(C)Cc3ccco3)c3ccccc3n2)cc1	-10
COc1cccc(-c2nc(Nc3ccncc3)c3ccccc3n2)c1	-10
COC(=O)Cn1c(C(=O)N(C)C)cc2c1C[C@H]1CN(C(=O)c3ccccc3)[C@@](Cc3ccc(OC)cc3)(C(=O)OC)[C@@H]21	-5
COC(=O)[C@@H]1CCCN1C(=O)[C@H]1C[C@@H]1[C@H](NC(=O)OCc1ccccc1)c1ccccc1	-8
C1CNCCN1	-3
COc1ccc2c(c1)[C@@]1(C)CCC[C@](C)(CO)C1CC2 (stereo partly drawn)	-1
C=CC1=C2C=C(C3CC3)N(CCCCO)C=C2C(=O)C(C)(OC(=O)c2ccco2)C1=O (stereo not drawn)	3
O=C(O)c1ccc2c(c1)OCO2	5
C=C1c2ccccc2O[C@H](C(=O)OCC)[C@@H]1CCC(C)C (tested in a mixture with another compound)	-26
COc1ccc2c(c1)CCC1C2CC[C@@]2(C)C(O)CCC12 (stereo partly drawn)	-4
C=C1CC[C@H](O)C/C1=C/C=C1\CCC[C@]2(C)[C@@H]([C@H](C)CCCC(C)(C)O)CC[C@@H]12	0
C=CC1=C2C=C(C3CC3)N(CCN3CCOCC3)C=C2C(=O)C(C)(OC(=O)c2ccco2)C1=O (stereo not drawn)	3
CC(=O)OCC(=O)C1CCC2C3CCC4=CC(=O)CC[C@@]4(C)C3CC[C@]12C (stereo partly drawn)	-1
COc1c(-c2coc3cc4c(cc3c2=O)CC(O)C(C)(C)O4)ccc2c1C=CC(C)(C)O2 (stereo not drawn)	-14
Cc1nc(NC2CCCCC2)c2nc(-c3ccccc3)n(CCN3CCCCC3)c2n1	-20

Taken from above:
`COc1ccc2c(c1)[C@@]1(C)CCC[C@](C)(CO)C1CC2` (stereo partly drawn) in GLA inh pH 4.5 is listed with -1
`C=C1c2ccccc2O[C@H](C(=O)OCC)[C@@H]1CCC(C)C` (tested in a mixture with another compound) in GLA inh pH 4.5 is listed with -26
`COc1ccc2c(c1)CCC1C2CC[C@@]2(C)C(O)CCC12` (stereo partly drawn) in GLA inh pH 4.5 is listed with -4
`C=CC1=C2C=C(C3CC3)N(CCCCO)C=C2C(=O)C(C)(OC(=O)c2ccco2)C1=O` (stereo not drawn) in GLA inh pH 4.5 is listed with 3
`Cc1nc(NC2CCCCC2)c2nc(-c3ccccc3)n(CCN3CCCCC3)c2n1` in GLA inh pH 4.5 is listed with -20
`COc1c(-c2coc3cc4c(cc3c2=O)CC(O)C(C)(C)O4)ccc2c1C=CC(C)(C)O2` (stereo not drawn) in GLA inh pH 4.5 is listed with -14

Remaining list, next part.
SMILES	GLA inh pH 4.5
CCN(CC)CC1CCN(c2ncc3ncnc(Nc4ccc(F)c(Cl)c4)c3n2)CC1	-13
C[C@H]1OC(=O)CC[C@@H]2[C@]1(C)CCC1[C@@]2(C)CC[C@@]2(C)C3CC(C)(C)CC[C@]3(CO)CC[C@]12C (stereo partly drawn)	0
Clc1ccc2ncnc(NCc3ccc4c(c3)OCO4)c2c1	-4
CN(C)Cc1ccccc1-c1cc(NC2CC2)ncn1	3
COC(=O)N[C@@H](CCc1ccccc1)[C@]1(C(=O)OC)CCCC1=O	3
CC#C[C@]1(O)CC[C@H]2[C@@H]3CCC4=CC(=O)CCC4=C3[C@H](c3ccc(N(C)C)cc3)C[C@@]21C	-9
CC(C)C[C@H]1C(=O)N2CCC[C@@H]2[C@]2(O)O[C@](NC(=O)[C@@H]3C=C4c5cccc6[nH]c(Br)c(c56)C[C@H]4N(C)C3)(C(C)C)C(=O)N12	-6
COC(=O)CN=C1OC(=O)N2C(=O)C3=C4C(C[C@H]5C(=O)N(c6ccccc6)C(=O)[C@H]5[C@H]4[C@@]12Cc1ccccc1)[C@H]1C(=O)N(c2ccccc2)C(=O)[C@H]1[C@H]3C (stereo partly drawn)	-7
COCCOC(=O)C1=C(C)NC(C)=C(C(=O)OC(C)C)[C@H]1c1cccc([N+](=O)[O-])c1	0
CC(C)N=C(N)/N=C(\N)Nc1ccc(Cl)cc1	4
O=c1cc(-c2ccccc2)[nH]c2nc(Cl)ccc12	7
CC(=O)OCC(=O)[C@@]1(O)[C@H](C)C[C@@H]2[C@H]3CCC4=CC(=O)C=C[C@]4(C)[C@]3(F)[C@@H](O)C[C@@]21C	2
Cc1noc(C)c1S(=O)(=O)N1CCc2nc(COc3ccccc3)c3c(c2C1)CO[C@@H](C)C3	4
CN1C2CCC1CC(NC(=O)c1nn(C)c3ccccc13)C2 (stereo not drawn)	6
C=CCC(O)(C#Cc1ccccc1)c1ccccc1 (stereo not drawn)	0
COc1cc(/C=C/C(=O)c2cccs2)cc(OC)c1OC	-22
Cc1nc2c(OCc3ccccc3)cccn2c1CC#N	-4&-8
CCCC[C@@H]1C[C@H]1C(NC(=O)c1ccccc1)c1ccc(Cl)cc1 (stereo partly drawn)	-1
COc1cc2oc(=O)cc(-c3cccc(-c4ccc(C(C)=O)cc4)c3)c2c(OC)c1OC	-2
CC(CCC(=O)O)C1CCC2C3C(=O)C[C@@H]4CC(=O)CC[C@@]4(C)C3CC(=O)[C@]12C (stereo partly drawn)	5
NC(=NC1C2CC3CC(C2)CC1C3)Nc1ccc(I)cc1 (stereo not drawn)	-3
CC(=O)N[C@@H](CSC/C=C(\C)CCC=C(C)C)C(=O)O	-4
COc1ccccc1-c1nccc(-n2ccnc2)n1	-8
CC(=O)[C@@]1(O)[C@H](O)CC2C3CCC4CC(O)CC[C@]4(C)C3CC[C@@]21C (stereo partly drawn)	-8
CC1(OC(=O)c2ccco2)C(=O)C=C2C=C(c3ccc(C#N)cc3)OC=C2C1=O (stereo not drawn)	-8
C[C@@H]1CC2C3CCC4=CC(=O)C=CC4(C)[C@@]3(F)[C@@H](O)CC2(C)[C@@]1(O)C(=O)CO (stereo partly drawn)	-15
Cc1ccc(S(=O)(=O)N2CCC(=O)N([C@H](COCc3cccc(C)c3)Cc3ccccc3)CC2)cc1	-9
COC(=O)c1ccc(C(NC(=O)OCc2ccccc2)/C(I)=C/[C@@H](C)C(=O)Nc2ccccc2)cc1 (stereo partly drawn)	-3
Cc1cccc(C)c1Nc1oc(-c2ccccc2)nc1-c1ccccc1	-4
NCC(O)(CS(=O)(=O)O)c1ccc(Cl)cc1 (stereo not drawn)	-3

Retrieved by compound from the entries so far:
SMILES	GLA inh pH 4.5
Cc1nc2c(OCc3ccccc3)cccn2c1CC#N	-4&-8
CC1(OC(=O)c2ccco2)C(=O)C=C2C=C(c3ccc(C#N)cc3)OC=C2C1=O (stereo not drawn)	-8
COC(=O)c1ccc(C(NC(=O)OCc2ccccc2)/C(I)=C/[C@@H](C)C(=O)Nc2ccccc2)cc1 (stereo partly drawn)	-3
Cc1ccc(S(=O)(=O)N2CCC(=O)N([C@H](COCc3cccc(C)c3)Cc3ccccc3)CC2)cc1	-9
NC(=NC1C2CC3CC(C2)CC1C3)Nc1ccc(I)cc1 (stereo not drawn)	-3
C[C@@H]1CC2C3CCC4=CC(=O)C=CC4(C)[C@@]3(F)[C@@H](O)CC2(C)[C@@]1(O)C(=O)CO (stereo partly drawn)	-15
COc1cc(/C=C/C(=O)c2cccs2)cc(OC)c1OC	-22

Next section.
SMILES	GLA inh pH 4.5
COCCc1ccc(OC[C@H](O)CNC(C)C)cc1	3
O=C(NCc1ccco1)O[C@@H]1C(=O)c2cc(Br)ccc2O[C@H]1c1ccc2c(c1)OCO2	-4
CC(=O)OC1CC[C@@]2(C)C(CC[C@@]3(C)C2CC=C2C4CC(C)(C)CC[C@]4(C(=O)O)CC[C@@]23C)C1(C)C (stereo partly drawn)	9
COC(=O)C1(CC(C)C)C=C2C(=C(C)C(=O)C2C)CN1 (stereo not drawn)	3
CCCCC/C=C\C/C=C\CCCCCCCCCC(=O)NC(C)C(=O)O (stereo not drawn)	-13
COC(=O)[C@@]1(Cc2ccccc2-c2ccco2)C=C[C@H](C)[C@@H](c2ccccc2)N1C(=O)C(F)(F)F	-3
S=C(S)O[C@@H]1C[C@@H]2C[C@H]1[C@@H]1CCC[C@H]21	4
COc1ccc2nc3c(c([Si](C)(C)C(C)(C)C)c2c1)Cn1c-3cccc1=O	-1
CCCC[C@@H]1C[C@H]1C(NC(=O)c1cccs1)c1ccccc1C(F)(F)F (stereo partly drawn)	-20
CC(Cc1ccc(O)c(O)c1)(NN)C(=O)O (stereo not drawn)	10
Cc1cnc(CNc2cc(-c3ccoc3)ncn2)cn1	-5

This is a subset; the hit share may differ from the screen's.
